HNF4A DNA FP: change in binding of human HNF4A to DNA, primary screen, biochemical, fluorescence polarization, FITC-DNA; Hepatocyte nuclear factor 4-alpha (Homo sapiens), P41235; 0.3% of 360,000 active; AID 1224865, 2016; activity change, % at 10 µM; 1 h; in the data active = activity change above about 30%, passing the limit was not always enough;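 also: controls were the assay level and a saturating level of protein; the project sought stronger binding though the title names inhibitors; some compounds called inactive have numbers as strong as hits; positive values seem to mean higher polarization but the record does not say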
Target sequence (P41235 whole entry, looked up): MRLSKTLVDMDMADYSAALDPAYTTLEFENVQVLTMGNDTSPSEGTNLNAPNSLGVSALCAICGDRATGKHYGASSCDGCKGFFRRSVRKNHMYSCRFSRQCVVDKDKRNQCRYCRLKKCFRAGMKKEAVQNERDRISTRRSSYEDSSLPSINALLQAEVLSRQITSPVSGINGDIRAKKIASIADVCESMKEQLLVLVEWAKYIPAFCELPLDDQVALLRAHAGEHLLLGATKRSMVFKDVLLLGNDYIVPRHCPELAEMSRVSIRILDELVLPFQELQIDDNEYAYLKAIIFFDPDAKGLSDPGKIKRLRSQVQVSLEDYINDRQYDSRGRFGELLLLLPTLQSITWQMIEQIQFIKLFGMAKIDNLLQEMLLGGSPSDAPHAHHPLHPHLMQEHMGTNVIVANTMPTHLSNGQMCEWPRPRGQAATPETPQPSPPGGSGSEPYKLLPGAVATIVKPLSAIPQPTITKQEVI
Beta2AR agonist: beta2AR agonists driving receptor internalization, primary screen, cell-based, FAP fluorogen, flow cytometry; response, % (no concentration beside the values); AID 504454, 2011; Beta-2 adrenergic receptor (Homo sapiens), P07550; 0.43% of 340,000 active; Am2.2-beta2AR cells; reference of the scale not given here;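 active = response above a set limit, near 3 SD of response in nonfluorescent compounds, cut at about 42% in these data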;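 also: stock transfer was 100 nL into about 11 µL; a reference agonist was the positive control; negative values mostly stem from fluorescent compounds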
Target sequence (P07550 whole entry, looked up): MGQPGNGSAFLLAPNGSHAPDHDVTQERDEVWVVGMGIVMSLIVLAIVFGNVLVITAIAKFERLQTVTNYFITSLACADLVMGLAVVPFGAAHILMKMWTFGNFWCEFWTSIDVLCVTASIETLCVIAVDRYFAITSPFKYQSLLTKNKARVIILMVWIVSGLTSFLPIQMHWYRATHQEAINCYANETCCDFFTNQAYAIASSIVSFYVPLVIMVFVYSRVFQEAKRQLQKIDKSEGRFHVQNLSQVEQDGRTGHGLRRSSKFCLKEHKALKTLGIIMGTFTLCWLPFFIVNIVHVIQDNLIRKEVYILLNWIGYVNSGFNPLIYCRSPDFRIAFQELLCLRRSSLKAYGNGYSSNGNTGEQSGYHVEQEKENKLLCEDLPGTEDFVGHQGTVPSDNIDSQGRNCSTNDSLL
ALR inh: inhibitors of human ALR sulfhydryl oxidase, primary screen, biochemical, H2O2 detection, HRP-luminol luminescence, single point. FAD-linked sulfhydryl oxidase ALR (Homo sapiens), P55789. 3.8% of 290,000 active. purified ALR, DTT oxidation. inhibition, % (concentration not given with the values);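 active = mean and each replicate at 75% or more; inconclusive = only one of the two met; inactive = neither met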;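 also: stock transfer was 7.5 nL into about 7.5 µL; 0% = neutral wells and 100% = wells with inactivated enzyme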
RanGTP-Imp inh: inhibitors of RanGTP-importin-beta interaction, primary screen, biochemical, FRET, CFP-Ran, YFP-importin-beta, homogeneous; 1.1% of 300,000 active; inhibition, % (no concentration beside the values); AID 2216, 2009; cell-free CFP-Ran/YFP-importin-beta FRET ratio; Ran GTPase (GTP-bound) - importin-beta complex;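 active = most replicates above 15%; inconclusive = exactly half above 15%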;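 also: 0% = DMSO wells and 100% = Ran loaded with GDP instead of GTP; wells of about 40 µL received 100 nL stock; the first replicate is given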
Vif A3G: inhibitors of Vif binding to APOBEC3G peptide, primary screen, biochemical, TR-FRET, GST-Vif 1-94, biotin-A3G peptide, dose response retest (AID 1117319); TR-FRET GST-Vif / biotin-A3G peptide binding; higher % means a stronger effect; test concentration not given here; strong numbers were not always called active; inhibition, %; hits with a dose series show IC50 in µM; 0.57% of 260,000 active; Virion infectivity factor (Human immunodeficiency virus type 1 group M subtype B (isolate …;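 active = above the screen mean plus three standard deviations and confirmed in dose response; inconclusive = results disagree or hit not tested in dose response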;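 also: Vif residues 1-94 fused to GST binding biotinylated APOBEC3G peptide 110-148; 0% = full assay without inhibitor and 100% = GST in place of GST-Vif; retest series ran down from 100 µM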
LANA-H2B inh: blockers of LANA interaction with H2A/H2B – biochemical, FP readout, HTS, primary screen. cell-free LANA-H2A/H2B peptide, fluorescence polarization. inhibition, % (no concentration beside the values). 0.6% of 320,000 active; in the data active = inhibition mostly above about 10%, no sharp cut-off; inactive = mostly below about 6.7%;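 also: stock transfer was 7.5 nL into about 10 µL; 0% = median of vehicle wells and 100% = median of positive control wells; one replicate is shown; the record names a cut of 25% in any replicate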
Calb FLC: C. albicans growth inhibition with fluconazole, primary screen, CaCi-2 strain, Alamar Blue fluorescence | growth inhibition, % (no concentration beside the values) | AID 1979, 2009 | C. albicans CaCi-2 (fluconazole-resistant clinical isolate) + fluconazole, 48 h | 0.57% of 300,000 active;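 active = most replicates above 75%; inconclusive = exactly half above 75%; inactive = most below 75%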;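 also: all wells also contain fluconazole at 8 µg/ml as a sub-toxic cotreatment; 0% = median of DMSO wells and 100% = median of geldanamycin control wells; wells of about 8 µL received 7.5 nL stock; the first replicate is given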
The depositor's hits bear a star; ? = inconclusive; · = no result given. A portion of the library; the hit share may differ from the screen's.

smiles,HNF4A DNA FP,Beta2AR agonist,ALR inh,RanGTP-Imp inh,Vif A3G,LANA-H2B inh,Calb FLC
Cc1nc(Cl)sc1C(=O)Nc1ccc2ccccc2c1,3.2,4,-11,0.0,8%,-3.2,-3
COc1ccc(OC)c(NC2=NCCCS2)c1,-1.3,-4,-10,-2.9,0%,2.4,-8
COP(=O)(OC)C(Nc1ccccc1)c1ccccc1 (configuration not stated),0.2,1,96*,-3.8,·,8.2,1
CN1CCN(c2cc([N+](=O)[O-])ccc2Cl)CC1,-0.5,6,-7,-1.2,4%,1.6,-9
O=C(COc1ccccc1Cl)N1CCCC(N2CCN(c3ccc(F)cc3)CC2)C1 (configuration not stated),-3.5,8,10,-1.6,2%,0.0,10
Cc1cccc(C(=O)NC(Oc2ccccc2)C(Cl)(Cl)Cl)c1 (configuration not stated),-0.5,7,-1,1.8,10%,0.4,-22
CCOC(=O)CCCCCNC(=O)c1c(O)[nH]c(=O)[nH]c1=O,0.0,0,0,0.5,·,0.9,-2
O=[N+]([O-])c1ccc(N2CCCC2)c2ncccc12,-24,-7,-51,3.3,-6%,0.6,-16
N/C(=N/[N+](=O)[O-])N1CCN(C(=O)c2ccc(Cl)cc2)CC1,-2.8,0,0,5.9,?,-4.1,-21
O=C(c1n[nH]c(=O)c2ccccc12)N1CCC2(CC1)OCCO2,-1.4,6,-8,-1.7,-15%,-0.7,-11
Cc1ccc(C2NC(=S)NC(c3ccc(C)cc3)C23C(=O)NC(=O)NC3=O)cc1 (configuration not stated),1.6,-3,·,-1.2,-4%,-1.3,-1
COC(=O)N1CCN(C(=O)Cc2ccc(Cl)c(Cl)c2)C(CN2CCCC2)C1 (configuration not stated),·,·,-17,?,-3%,-3.3,·
CN(C)c1ccc(/C=C2/C(=O)NC(=O)N(Cc3ccco3)C2=O)cc1,-9.0,14,19,0.4,·,-2.2,10
CN1C(=O)N(C)C(=O)C2(Cc3cc(NC(=O)c4ccccc4Cl)ccc3N3CCCC32)C1=O (configuration not stated),8.3,6,-8,0.5,-2%,-4.3,2
Oc1cccc2nc3ccccc3nc12,-0.3,-16,·,-2.5,·,-1.2,-6
O=C1NC(=O)C(CCc2ccncc2)(CCc2ccncc2)C(=O)N1Cc1ccc(F)cc1,-3.1,-1,8,?,11%,0.4,-1
COC(=O)C1=C(c2ccccc2)C[C@@H]2CC[C@H]1N2C(=O)NC1CC1,-0.1,4,·,-0.6,·,0.0,-5
CC1CCN(C(CC(=O)c2ccccc2)C(=O)c2ccccc2)CC1 (configuration not stated),5.0,14,·,·,-4%,·,·
CC(C)CCOC(=O)c1c(N)n(CC2CCCO2)c2nc3ccccc3nc12 (configuration not stated),-2.3,-3,-7,11,3%,-2.1,-7
COC(=O)C1=C(c2ccc(F)cc2OCc2ccccc2)C[C@@H]2CC[C@H]1N2C(=O)NCc1ccc(Cl)cc1,-4.7,1,0,·,·,-0.7,·
CC(C)N1C(=O)/C(=C/C=C/c2ccco2)C(=O)N(Cc2ccco2)C1=O,8.8,19,98*,-2.0,2.2µM*,-1.9,-2
Cc1cc(=O)oc2cc(OCC(=O)N3C[C@H]4C[C@@H](C3)c3cccc(=O)n3C4)c(Cl)cc12,2.1,6,·,-2.1,·,0.2,2
O=C1N[C@@H](Cc2ccccc2)C(=O)N2[C@H]1C[C@H]1c3ccccc3N(OOSc3ccccc3)[C@H]12,3.1,5,0,-5.5,·,1.4,-34
CCOC(=O)c1cnc(SCc2ccc(Cl)c(Cl)c2)nc1N1CC1,1.0,38,·,·,-2%,·,·

Complete entries as entered above. Order of screens: HNF4A DNA FP, Beta2AR agonist, ALR inh, RanGTP-Imp inh, Vif A3G, LANA-H2B inh, Calb FLC
CC(C)N1C(=O)/C(=C/C=C/c2ccco2)C(=O)N(Cc2ccco2)C1=O in the list: 8.8, 19, 98*, -2.0, 2.2µM*, -1.9, -2
CN(C)c1ccc(/C=C2/C(=O)NC(=O)N(Cc3ccco3)C2=O)cc1 in the list: -9.0, 14, 19, 0.4, ·, -2.2, 10

Additional results:
smiles,HNF4A DNA FP,Beta2AR agonist,ALR inh,RanGTP-Imp inh,Vif A3G,LANA-H2B inh,Calb FLC
OCCNc1c2c(nc3ccccc13)CCCC2,-2.7,-14,-1,-1.0,3%,-2.3,27
COC(=O)C1=C(c2ccc(F)cc2F)C[C@@H]2CC[C@H]1N2C(=O)NCc1ccc2c(c1)OCO2,3.1,-8,4,·,·,-3.1,·
O=C(C[N+]12CCC(CC1)C(CO)C2)c1ccc([N+](=O)[O-])cc1 (configuration not stated),-0.2,4,-45,0.4,-1%,3.6,2
COc1ccc(-n2c(C)nc3ccccc3c2=O)c([N+](=O)[O-])c1,-2.7,3,-6,0.4,0%,-5.5,1
CCC1=Nc2cc(C(=O)N3CCC4(CC3)OCCO4)ccc2Sc2ccccc21,-2.8,1,2,-0.7,-11%,6.6,-3
OCC12CO[C@@H]3c4ccccc4[C@H](OC1)N32 (some centres not stated),2.5,0,-4,-1.6,9%,-3.1,-7
CN1CCN(c2ncnc(Cl)c2N)CC1,3.5,3,·,·,9%,·,·
COc1cc2c(cc1OC)C13CCN4CC5=CCOC6CC(=O)N2C1C6C5C3C4 (configuration not stated) (tested in a mixture with another compound),-1.9,-5,·,·,-3%,·,·
CC12C(C(=O)O)C1(c1ccccc1)C2C(=O)O (configuration not stated),1.8,-4,·,·,-8%,·,·
CN1C(=O)/C(=C\c2ccc(Br)s2)C(=O)NC1=S,0.5,26,56,2.2,·,-4.7,1
COc1ccc(C(=O)N2CCC3(CC2)OCCO3)cc1,0.1,-3,2,1.7,·,0.3,-5
N#CC1=C(N)Oc2c(c(=O)sc3ccccc23)C1c1ccncc1 (configuration not stated),1.6,1,95*,-2.2,1%,-2.2,12
Cc1ccc(Cn2nc(C)c(C=O)c2Cl)cc1,2.7,4,1,0.7,-9%,-2.6,-3
CCOC(=O)CC(SP1(=S)OCC2(CCCCO2)C(C2CCCCO2)O1)C(=O)OCC (configuration not stated),-1.4,6,·,·,-10%,·,·
CN(C)C(=O)Oc1ccc(-c2nnco2)cc1,2.0,6,0,0.3,2%,0.4,-14
COC(=O)C1=C(c2ccc(OC(F)(F)F)cc2)C[C@@H]2CC[C@H]1N2C(=O)NCc1ccc(F)cc1,5.8,0,-6,·,·,1.0,·
O=C1CN=C(c2cccs2)c2c(sc3c2CCCC3)N1,4.6,4,53,-0.7,?,5.5,?
CCCCn1c(=O)c(C(=O)Nc2ccccc2F)c(O)c2ccccc21,-2.0,17,0,9.2,·,13,-4
Oc1ccc(CC2(N3CCCC3)CCCCC2)cc1,1.3,-1,20,2.8,·,-2.8,-4
CN1Cc2cnnn2-c2ccccc2C1c1ccccc1 (configuration not stated),4.2,-4,·,·,6%,·,·
CC(=NCc1ccc(F)cc1)c1c(O)n(C)c(=O)n(C)c1=O,1.5,-7,-3,2.8,4%,4.2,0
COc1ccc2[nH]c(C)c(CCN3CCC(=O)C(C)C3C)c2c1 (configuration not stated),-0.2,4,51,-25,?,3.2,3
O=C(Cc1ccccc1)Oc1ccc(N2C(=O)C3CCCCC3C2=O)cc1 (configuration not stated),-1.4,-7,-12,2.1,5%,-2.1,21
COc1ccc(N2C(=O)/C(=C/c3ccc(C)o3)C(=O)NC2=S)c(OC)c1,4.8,3,0,-3.8,15%,4.5,3
Cc1ccccc1OCCN=Cc1c(O)n(C)c(=O)n(C)c1=O,0.2,-5,0,3.5,8%,0.6,-7
CCOC(=O)C1(c2ccccc2)CCN(CCC(=O)Nc2ccccc2OC)CC1,0.3,7,1,0.8,1%,3.6,3
Cc1nc2cc(C(F)(F)F)ccc2n1C1CCN(Cc2nnnn2CCc2ccccc2)CC1,-2.4,-1,0,2.7,32%,-4.4,0
CN(C)c1cccc2c(C#N)ccc(N(C)C)c12,-1.0,7,70,-3.7,·,-1.4,2
CC12CCC3C(CC=C4CC(O)CCC43C)C1C/C(=C\c1ccccc1F)C2=O (configuration not stated),-0.2,16,-17,4.9,·,7.1,-6
CCCC12CN3CC(CCC)(CN(C1)C3c1ccccn1)C2=O (configuration not stated),1.0,-4,-11,5.7,-1%,-0.9,?
CC(C)[C@H]1C(=O)O[C@H](C(C)C)C(=O)N(C)[C@@H](C(C)C)C(=O)O[C@H](C(C)C)C(=O)N(C)[C@@H](C(C)C)C(=O)O[C@H](C(C)C)C(=O)N1C,0.7,9,-16,4.3,4%,0.6,88*
Cc1ccccc1CN1CCCN(Cc2ccc(Cl)cc2)S1(=O)=O,3.0,-1,·,-3.4,-4%,-1.6,-3
CCN1CCN(Cc2cc(OC)c3c(c2)OCO3)CC1,1.7,2,-4,0.0,-2%,-1.8,-7
CC1CNCCN1c1ccc(Cl)cc1 (configuration not stated),3.8,11,·,·,-11%,·,·
Cc1cccn2c(=O)c3c(nc12)N1CCCCCC1C1(C3)C(=O)N(C)C(=O)N(C)C1=O (configuration not stated),-2.1,-2,3,9.2,·,-3.3,-2
COc1ccc(-c2nn(CCC#N)cc2C(=O)Nc2cccc([N+](=O)[O-])c2)cc1OC,-1.1,9,-15,?,·,0.5,2
COc1ccc(CCn2c(O)c(C=NCCCN(C)C)c(=O)[nH]c2=O)cc1OC,5.1,0,-14,-1.1,-3%,-6.3,0
Cc1ccnc(-n2c(C)cc(/C=C3\C(=O)NC(=S)N(C)C3=O)c2C)c1,-0.9,20,97*,9.8,?,-0.5,-3
CC1=CC(C)C(COC(N)=O)(COC(N)=O)C(C)C1 (configuration not stated),-0.6,12,-2,-0.8,?,1.9,-5
COCCNC(=O)Cn1cc(/C=C2\C(=O)NC(=O)N(c3cccc(C)c3C)C2=O)c2ccccc21,2.1,29,92*,3.3,3%,-18,-2
COC(=O)C1=C(c2ccc(OC(F)(F)F)cc2)C[C@@H]2CC[C@H]1N2C(=O)NCCNC(C)=O,-0.3,3,-1,·,·,0.3,·
Nc1cc(Cl)c2nonc2c1[N+](=O)[O-],-2.4,73*,97*,·,·,-1.6,·
